# Screening data from PubChem BioAssay.
# PINK1 modulator: changes PINK1 expression | Potency, µM (titrated, usually from 76.6 µM), for inactives: at the top dose activation (PINK1 increase), most hits filed as activators | PINK1 immunofluorescence, high-content cytometry, 24 h | 0.2% of 410,000 active; active = well fitted activation curve with a large enough effect; inconclusive = small, poorly fitted or top-dose-only effect; inactive = flat fitted curve, though single readings scatter; cell line not stated here;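 further: potency means the concentration at half of the fitted maximal effect; % of control where 0% means no effect; nearly all actives have a fitted effect of over 65% in size; a mitochondrial uncoupler was the plate control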
#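 Stable cell line treated 24 h with compounds at 5 concentrations (CCCP controls), then fixed and immunostained for PINK1 plus nuclear and cell stains; PINK1 immunofluorescence quantified by laser-scanning microplate cytometry.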
# TRPML1 ag: agonists of human TRPML1 channel; Q9GZU1; TRPML1-expressing cells, Ca2+ dye fluorescence, FDSS; host cell line not named in the record; reference of the full effect not given here; activation, % (test concentration not listed); 0.12% of 410,000 active; in the data active = activation above about 50%; inconclusive = about 30% to 50%; inactive = below about 30%; further: 0% is about no effect; the text of the record puts the active cut at 80%
# Target sequence (Q9GZU1 whole entry, looked up): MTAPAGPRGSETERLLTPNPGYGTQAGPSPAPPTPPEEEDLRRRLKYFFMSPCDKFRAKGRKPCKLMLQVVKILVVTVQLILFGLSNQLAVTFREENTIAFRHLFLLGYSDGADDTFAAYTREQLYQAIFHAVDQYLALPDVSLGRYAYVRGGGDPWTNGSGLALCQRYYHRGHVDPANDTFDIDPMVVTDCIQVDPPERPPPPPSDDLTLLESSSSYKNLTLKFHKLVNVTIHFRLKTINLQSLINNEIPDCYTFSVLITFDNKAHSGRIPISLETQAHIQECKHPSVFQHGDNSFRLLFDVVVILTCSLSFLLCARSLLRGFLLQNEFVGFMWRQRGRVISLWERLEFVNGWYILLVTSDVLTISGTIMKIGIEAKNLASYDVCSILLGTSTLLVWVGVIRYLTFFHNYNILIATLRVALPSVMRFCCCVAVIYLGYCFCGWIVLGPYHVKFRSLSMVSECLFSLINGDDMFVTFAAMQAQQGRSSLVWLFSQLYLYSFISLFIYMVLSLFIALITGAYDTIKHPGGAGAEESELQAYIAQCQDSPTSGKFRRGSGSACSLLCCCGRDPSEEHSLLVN
#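 Tet-induced TRPML1-DL cells, 1,500 per well, cultured overnight, were loaded with a no-wash Ca2+ dye for 45–90 min. Calcium fluorescence was recorded on the FDSS for 110 s after compound addition, before the EC80 agonist (4 uM 54-4) was added.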
# D2 ag: human D2 receptor agonism in beta-arrestin assay | DiscoveRx PathHunter D2 beta-arrestin, luminescence, 90 min; 100% = 57 uM dopamine signal | AID 624465 | 0.084% of 360,000 active | P14416 | activation, % (concentration not given with the values); in the data active = activation above about 40%; inconclusive = about 15% to 40%; inactive = below about 15%; further: compound concentration not given in the record; the text of the record calls up to 30% inactive
# Target sequence (P14416 whole entry, looked up): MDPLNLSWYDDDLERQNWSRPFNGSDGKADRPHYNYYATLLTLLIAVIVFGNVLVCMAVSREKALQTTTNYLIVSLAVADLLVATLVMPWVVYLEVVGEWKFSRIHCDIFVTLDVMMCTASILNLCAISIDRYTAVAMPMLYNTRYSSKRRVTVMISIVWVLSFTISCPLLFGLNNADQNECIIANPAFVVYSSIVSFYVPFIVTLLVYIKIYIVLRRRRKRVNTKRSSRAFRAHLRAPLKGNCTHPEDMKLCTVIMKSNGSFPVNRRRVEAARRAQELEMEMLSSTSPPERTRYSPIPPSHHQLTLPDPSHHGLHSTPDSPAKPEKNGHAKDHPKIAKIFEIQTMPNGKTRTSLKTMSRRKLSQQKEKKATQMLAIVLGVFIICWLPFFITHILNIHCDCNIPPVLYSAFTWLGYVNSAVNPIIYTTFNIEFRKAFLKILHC
#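 Agonist mode: compounds alone added to overnight-plated D2 PathHunter cells for 90 min at 37 C, with 57 uM final dopamine (EC100) defining full response. Beta-arrestin recruitment detected by chemiluminescent reagent, read after 1 h at ambient temperature.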
# TRPML1 blocker: human mucolipin-1 channel inhibition. activity change, negative = inhibition, % (no concentration beside the values). Q9GZU1. TRPML1-inducible cells, Ca2+ dye fluorescence, FDSS; active compounds read low; inhibition of EC80 agonist-evoked calcium signal. 0.02% of 390,000 active; in the data active means activity change below about -50%; inconclusive means about -30% to -50%; inactive means above about -30%;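 further: stimulus is agonist 54-4 at its EC80 concentration; on the % scale 0 is the no-effect control and ±100 the full control effect; compound concentration not given in the record; the text of the record puts the active cut at -80%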
#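 TRPML1-DL cells, Tet-induced overnight (~16 h, 37 °C) at 1,500 cells/well, were loaded with Ca8 no-wash dye plus quencher for 45-90 min at room temperature. Compounds were pinned during FDSS kinetic reading; agonist 54-4 at EC80 (4 uM final) then added.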
# Six1-Eya2 blk: inhibitors of human Six1/Eya2 interaction. Q15475+O00167. AlphaScreen GST-Six1/His-Eya2 binding, biochemical; active compounds read low; control for the full effect not named in the record. activity change, % (no concentration beside the values). 0.56% of 360,000 active; in the data active = activity change below about -65%; inconclusive = about -30% to -65%; inactive = above about -30%; further: on the % scale 0 is the no-effect control and ±100 the full control effect
#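 Six1/Eya2 binding was read as AlphaScreen signal after compounds were pinned into GST-Six1 plus His-tagged Eya2 (5X stock 250/500 nM) in pH 8.0 Tris/NaCl/TCEP buffer, beads added, then incubated 1 h, 37 C, dark.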
# D2 potentiator: potentiates the human D2 dopamine receptor allosterically; P14416; DiscoveRx D2 beta-arrestin cells, luminescence, 90 min; 100% = 57 uM dopamine signal; potentiation, % (concentration not given with the values); 0.23% of 360,000 active; active = potentiation of 50% or more; inconclusive = 30% to 50%; inactive = 30% or less;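 further: compound concentration not given in the record; tested on top of an EC20 dose of dopamine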
#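 PathHunter beta-arrestin assay in DiscoveRx D2 cells. Compounds were added with an EC20 of dopamine (50 nM final) for 90 min at 37 deg C. Luminescence was read 1 h after detection reagent, with 57 uM dopamine as the EC100 control.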
# Active calls of the source: *; ? = inconclusive; . = no result given; & = joins results of further samples; [ ] = dose if it differs, or a comment. Rows are unselected; overall some 1% were active at least once.
SMILES,PINK1 modulator,TRPML1 ag,D2 ag,TRPML1 blocker,Six1-Eya2 blk,D2 potentiator
N#CC1=C(N)Oc2ccc3ccc(O)cc3c2C1c1cccnc1 (configuration not stated),.,1.9,5.3,25.7,-11.9,-4.7
O=C(CC(=O)OCc1ccccc1)OCc1ccccc1,0.2%,-0.1,5.3,7.2,2.8,4.4
CC(C)CNC(CC(=O)O)c1ccccc1 (configuration not stated),0.2%,0.1,-3.3,5.7,-3.1,-1.6
Cc1[nH]n(-c2ccccc2)c(=O)c1C(C[N+](=O)[O-])c1ccc(Br)cc1 (configuration not stated),-0.5%,-0.3,-5.0,-19.5,-5.9,-21.4
COc1ccc(C(=O)NCCNc2nc3ccc(C)cc3cc2C#N)cc1OC,2.6%,0.4,-3.8,-9.5,5.0,1.9
CCc1nnc(SC(CC)C(=O)Nc2cc(C)ccc2C)c2cc3occc3n12 (configuration not stated),0.3%,-0.9,.,-26.7,.,.
CN(C)S(=O)(=O)n1cc(/C=C(\NC(=O)c2ccccc2Cl)C(=O)NCCCn2ccnc2)c2ccccc21,5.0%&-4.1%,-0.6&0.2,-0.1,32.8&-6.6,-7.0,18.9
COc1ccc(S(=O)(=O)N2CCCCCC2)cc1NC(=O)c1c2c(nc3ccccc13)CCN(Cc1ccccc1)C2,1.2%,0.3,-3.3,-25.3,-14.1,-36.7
O=C(NCCNc1ccc(Cl)cc1[N+](=O)[O-])c1cccnc1,4.4%,0.3,-5.0,-10.9,-0.8,-12.0
CCOC(=O)CP(=O)(c1ccccc1)c1ccccc1,-1.1%,1.2,-1.8,-1.5,6.9,-3.2
COc1ccc(Cl)c(NC(=O)C/C(C)=N/NC(=O)CCc2ccccc2)c1,1.1%,-0.7,0.1,-4.7,-18.4,-7.4
CC1CCN(C(c2cc3cc4c(cc3[nH]c2=O)OCO4)c2nnnn2CC2CCCO2)CC1 (configuration not stated),?,0.2,-1.6,?,5.1,8.7
O=C1C2CCCN2C(c2ccccc2F)N1c1cccc(Cl)c1 (configuration not stated),0.9%,0.3,3.7,-0.9,-0.3,-2.3
COc1cc(OC)cc(C(=O)N[C@H](C(=O)OCC(=O)c2ccc(F)cc2)C(C)C)c1,2.0%,1.0,-5.3,-2.7,-5.5,-11.5
Cc1c(C(=O)NC(C)c2ccccn2)oc2c(Cl)cccc12 (configuration not stated),-0.1%,1.6,-4.5,-0.3,0.4,-5.2

# Profiles, quoted from the list. Screens in order: PINK1 modulator, TRPML1 ag, D2 ag, TRPML1 blocker, Six1-Eya2 blk, D2 potentiator
# CC1CCN(C(c2cc3cc4c(cc3[nH]c2=O)OCO4)c2nnnn2CC2CCCO2)CC1 (configuration not stated) is listed as ?, 0.2, -1.6, ?, 5.1, 8.7
# COc1ccc(Cl)c(NC(=O)C/C(C)=N/NC(=O)CCc2ccccc2)c1 is listed as 1.1%, -0.7, 0.1, -4.7, -18.4, -7.4

# Additional records follow:
SMILES,PINK1 modulator,TRPML1 ag,D2 ag,TRPML1 blocker,Six1-Eya2 blk,D2 potentiator
CCSC1=C(C#N)C(CC(C)C)C2=C(CCCC2=O)N1 (configuration not stated),2.2%,1.5,-1.2,19.7,9.1,-8.0
O=C(NC1=NCCS1)c1sc2cc(Cl)cc(Cl)c2c1Cl,4.4%,-0.5,-2.0,-0.7,-6.0,-4.2
NS(=O)(=O)c1cccc(NC(=O)C(Cc2ccccc2)NC(=O)c2ccccc2)c1 (configuration not stated),0.7%,-0.4,-3.0,-10.8,2.9,-9.7
O=C(CSc1nnc(-c2cccnc2)n1-c1ccccc1)NCc1ccc2c(c1)OCO2,-1.0%,-0.3,-1.3,-1.5,2.5,-5.1
O=C(c1cc(Br)c(Br)s1)N1CCc2ccccc2C1,16.0%,-0.8,-1.7,18.0,28.5,-12.6
COc1ccc(-n2c(C)cc(C(=O)COc3ccc(C)nc3[N+](=O)[O-])c2C)cc1,4.9%,1.4,3.8,2.3,?,25.9
CC(C)OC(=O)CSc1nc(N)c(C#N)cc1C#N,1.3%,-0.4,2.0,-2.5,-1.3,-2.5
CCOC(=O)c1c(C)[nH]c(C(=O)COC(=O)CNC(=O)c2ccc(Cl)cc2)c1C,-0.3%,1.2,-0.2,-7.3,0.9,-2.0
O=C(Cc1ccc(NC(=O)C2CCN(C(=O)C3CC3)CC2)cc1)Nc1cccc(C(=O)N2CCCC2)c1,0.4%,0.2,-1.0,53.3,2.7,3.6
Cc1nc(SCC(=O)O)n[nH]1,2.3%,-0.2,-0.8,-16.5,10.6,-6.3
O=C(CCNS(=O)(=O)c1ccccc1)N1CCCCCCC1,-1.5%,0.8,-3.2,-5.5,-2.7,-13.2
CCOC(=O)C(=O)NCC(c1cccs1)S(=O)(=O)c1ccc(F)cc1 (configuration not stated),-1.4%,1.0,1.9,22.0,6.4,-6.2
O[C@@H]([C@H](O)[C@H](O)CBr)[C@H](O)CBr,1.2%,-1.0,-3.6,12.0,4.7,-0.4
COC(=O)[C@]12CCCCC=C1N(Cc1ccco1)C(=O)[C@H](CC(=O)NCC13CC4CC(CC(C4)C1)C3)C2,11.3%,0.2,.,.,-3.8,.
CC1(C)CC2c3cccc(C(=O)O)c3C(=O)N2c2c1ccc1ccccc21 (configuration not stated),0.9%,1.4,-3.1,2.2,25.4,-12.1
Cc1ccccc1Cn1cnc2c([N+](=O)[O-])c(C)c(C)cc21,-1.8%,3.2,-3.2,-12.9,-1.9,-0.6
CN(C)c1ccc(CNCc2cccnc2)cc1,3.5%,0.1,-1.4,-5.1,-0.9,-13.3
O=C(c1cc([N+](=O)[O-])ccc1N1CCOCC1)N1CCN(S(=O)(=O)c2ccc(F)cc2)CC1,1.3%,0.2,1.5,-0.3,8.2,-3.9
CC(C)c1nnc(NC(=O)c2c(O)c3cccc4c3n(c2=O)CCC4)s1,-0.3%,-0.4,-2.8,3.9,-1.6,10.4
CCN(Cc1ccccc1)c1nc2c(S(=O)(=O)c3ccccc3)nnn2c2ccc(Cl)cc12,-0.2%,2.0,.,18.1,.,.
Cc1ccc(C(=O)O/N=C(\N)c2ccccn2)cc1Cl,10.3%,-0.4,5.1,14.1,3.7,22.4
Clc1ncn(C23CC4CC(CC(C4)C2)C3)n1,1.1%,1.3,0.8,0.8,0.5,-2.0
Cc1cccc(N2CCN(C(=O)c3ccc(-n4cncn4)c([N+](=O)[O-])c3)CC2)c1C,0.2%,-0.3,8.9,10.1,0.6,1.4
CCOC(=O)N1CCN(S(=O)(=O)c2ccc(C(=O)N(CCN(CC)CC)c3nc4c(C)cccc4s3)cc2)CC1,-1.7%,0.3,-0.7,19.8,-6.9,-30.9
COC(=O)c1cc(NS(=O)(=O)c2ccc(N3CCOCC3)c(N)c2)cc(C(=O)OC)c1,0.1%,-0.6,3.8,-3.1,2.5,10.0
COC(=O)c1cn(C(=O)c2cc(Cl)ccc2Cl)c2ccccc12,7.4%,1.6,2.4,5.9,12.5,-7.9
Oc1cc(Cc2ccccc2)cnc1CN1CCOCC1,-1.5%,-0.1,-1.2,-7.1,-4.6,-6.2
Cc1ccc(OCCCC(=O)ON=C(N)c2ccccc2C)cc1,14.3%,-0.5,10.3,-17.1,28.3,3.5
COC(=O)c1[nH]c2cccc(OC)c2c1NC(=O)CN1CCN(c2cccc(OC)c2)C(C)C1 (configuration not stated),-2.2%,0.0,-0.4,-11.3,-17.7,-14.7
COc1ccc(-c2csc(N(CC(C)C)C(=O)c3ccco3)n2)cc1,9.4%,1.3,-0.9,-10.6,-3.2,-0.6
Cc1ccc2nc3sc(C(=O)NCCCN(C)c4ccccc4)cc3cc2c1,-0.1%,1.1,.,12.3,.,.
COc1cccc(/C(=N/O)C2CC2c2ccc(Cl)cc2)c1 (configuration not stated),4.0%,3.7,6.5,-0.6,-2.5,-10.1
NC(Cc1cccc2nsnc12)C(=O)O (configuration not stated),0.4%,1.5,-3.7,-16.3,0.3,-17.2
COCCCNc1nc2c(c(=O)[nH]c(=O)n2C)n1CCCc1ccccc1,0.2%,0.1,0.1,2.8,-1.1,0.4
COc1ccc(NC(=S)N/N=C/c2ccc(F)cc2)cc1OC,2.0%,0.8,4.4,20.7,-6.2,-25.0
CCC(NC(=O)NNC(N)=S)(C(F)(F)F)C(F)(F)F,2.0%,0.2,-4.5,4.1,6.2,2.1
COc1cccc(NC(=O)c2oc3ccccc3c2NC(=O)C2CC2)c1,11.9%[38.3 µM],-0.3,-1.0,-5.0,-2.4,-15.6
CN(C)c1ccc(N2C(=NC(=O)CCC3CCCC3)SC3CS(=O)(=O)CC32)cc1 (configuration not stated),3.7%,-0.1,1.7,-10.5,-3.7,-8.9
Cn1c2c(c(=O)n(C)c1=O)C(c1ccc(Cl)cc1)C(C#N)=C(N)O2 (configuration not stated),-2.1%,0.2,-3.6,11.2,0.0,0.1
O=C(Cc1c[nH]c2ccccc12)Nc1nc2ccccc2[nH]1,0.7%,0.3,3.4,28.0,-1.9,3.5
C=CCNc1nc(C(=O)OCC(=O)NCc2cccc(Cl)c2)cs1,-1.6%,0.3,-0.8,13.9,0.5,-0.2
Cc1ccc2c(c1)NC(=O)C(CC(=O)NCCCN1CCCCC1)O2 (configuration not stated),1.7%,0.9,-1.7,30.9,1.0,-5.7
CC(=O)c1cccc(NC(=O)/C(=C/c2ccncc2)NC(=O)c2ccccc2)c1,2.6%,0.8,3.2,-16.6,10.4,-9.6
CCOC(=O)N1CCN(c2ccccc2O)CC1,-1.2%,-1.0,0.5,-5.2,0.5,?
Cc1ccc(CN(C(=O)c2ccc(F)cc2)c2ccccn2)o1,0.0%,-0.5,.,-7.9,.,.
COc1ccccc1C(O)P(=O)(OC(C)C)c1ccc(N(C)C)cc1 (configuration not stated),-6.1%[38.3 µM],-0.6,0.3,-1.7,0.9,-3.6
COc1ccc(C2=COc3ccccc3C(=O)N2)cc1,0.2%,-1.1,-3.9,-4.7,4.2,-0.8
COC(=O)CC1NCCc2cc(OC)c(OC)cc21 (configuration not stated),1.7%,-0.6,-5.0,17.0,-2.2,-5.8
COc1cccc(C(=O)N/N=c2\oc3c(OC)cccc3cc2C(=O)NCc2ccccc2)c1,11.9%,0.2,5.5,5.2,-6.9,6.2
COc1ccccc1N1CC(C(=O)Nc2nnc(SCc3cccnc3)s2)CC1=O (configuration not stated),-0.2%,0.5,2.0,11.7,7.2,17.6
COc1ccc(-c2cn3cccnc3n2)cc1NC(=O)CC(C)C,2.9%[38.3 µM],-0.1,-1.3,-5.4,1.4,-11.3
C/C(=N\NC(=O)c1cc2ccccc2cc1O)c1cccs1,-0.3%,0.0,1.8,-7.4,-26.1,-2.8
CC(C)CN(C(=O)CN(C)CC(=O)Nc1ccccc1C#N)c1c(N)n(CC(C)C)c(=O)[nH]c1=O,-0.3%,-0.2,2.9,2.0,-0.8,4.9
O=C(COc1ccc(S(=O)(=O)NC2CCCC2)cc1)N1CCCCC1,-2.8%,0.0,-0.4,-19.4,10.9,6.0
CC(=O)N1CCCc2cc(S(=O)(=O)N3CCC(C(=O)Nc4ccc(C)cc4Cl)CC3)ccc21,-0.5%,1.8,.,-8.7,.,.
